Beta apoptosis = inhibitors of cytokine-induced beta cell apoptosis, primary screen, luminescence | INS-1E cytokine-induced death, ATP luminescence, 48 h; percent of positive-control rescue, neutral wells zero | protection from apoptosis, % (no concentration beside the values) | hit rate 0.8% among 300,000 | AID 435005, 2010;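 active = all replicates at 75% or more, or half of them and the mean; inconclusive = half reach 75% but not the mean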;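 note: 0% = cytokine-treated negative control wells and 100% = positive control rescue; higher means more ATP so stronger rescue from cytokine killing; wells of about 40 µL received 100 nL stock; the first replicate is given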
Vif TR-FRET = inhibitors of Vif binding to APOBEC3G peptide, primary screen, biochemical, TR-FRET, GST-Vif 1-94, biotin-A3G peptide, dose response retest (AID 1117319); Virion infectivity factor (Human immunodeficiency virus type 1 group M subtype B (isolate …; TR-FRET GST-Vif / biotin-A3G peptide binding; higher % means a stronger effect; test concentration not given here; strong numbers were not always called active; inhibition, %, or IC50 in µM where a hit was titrated; hit rate 0.57% among 260,000;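 active = above the screen mean plus three standard deviations and confirmed in dose response; inconclusive = results disagree or hit not tested in dose response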;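 note: Vif residues 1-94 fused to GST binding biotinylated APOBEC3G peptide 110-148; 0% = full assay without inhibitor and 100% = GST in place of GST-Vif; retest series ran down from 100 µM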
RanGTP-Impb inh = inhibitors of RanGTP-importin-beta interaction, primary screen, biochemical, FRET, CFP-Ran, YFP-importin-beta, homogeneous | Ran GTPase (GTP-bound) - importin-beta complex | cell-free CFP-Ran/YFP-importin-beta FRET ratio | inhibition, % (test concentration not listed) | hit rate 1.1% among 300,000 | AID 2216, 2009;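 active = most replicates above 15%; inconclusive = exactly half above 15%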;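 note: 0% = DMSO wells and 100% = Ran loaded with GDP instead of GTP; wells of about 40 µL received 100 nL stock; the first replicate is given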
MLL AF4-AF9 inh = inhibitors of AF4 peptide binding to AF9, primary screen, biochemical, AlphaScreen, biotin-AF4 peptide, FLAG-AF9, single point. inhibition, % at 10 µM. hit rate 0.47% among 350,000. Protein AF-9 (Homo sapiens), P42568;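 active = every replicate reaching a set inhibition limit, whatever the replicate mean, cut at about 25% in these data; inconclusive = mean inhibition reaches that limit but some replicates miss it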;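 note: 0% = plate neutral control median and 100% = total signal loss; the record names both 10 and 1 µM as test concentration; the first replicate is given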
Target sequence (P42568 whole entry, looked up): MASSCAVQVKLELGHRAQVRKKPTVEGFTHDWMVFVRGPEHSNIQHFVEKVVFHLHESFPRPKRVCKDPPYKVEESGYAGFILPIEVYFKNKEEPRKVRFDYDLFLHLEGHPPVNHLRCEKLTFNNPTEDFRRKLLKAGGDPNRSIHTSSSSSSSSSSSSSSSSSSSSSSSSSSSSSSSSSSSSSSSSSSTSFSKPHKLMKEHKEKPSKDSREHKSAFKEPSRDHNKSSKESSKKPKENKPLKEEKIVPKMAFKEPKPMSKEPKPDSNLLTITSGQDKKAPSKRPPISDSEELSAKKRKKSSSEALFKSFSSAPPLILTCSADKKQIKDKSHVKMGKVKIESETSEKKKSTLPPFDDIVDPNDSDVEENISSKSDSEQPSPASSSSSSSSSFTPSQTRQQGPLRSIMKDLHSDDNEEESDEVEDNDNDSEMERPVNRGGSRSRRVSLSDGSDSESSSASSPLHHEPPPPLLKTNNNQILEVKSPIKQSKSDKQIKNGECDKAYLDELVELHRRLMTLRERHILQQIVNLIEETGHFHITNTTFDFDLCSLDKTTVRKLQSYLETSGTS
rRNA inh HTS = reduced GFP signal of wild-type E. coli, primary screen, bacterial rRNA inhibitor project, GFP/RFP fluorescence, OD600, single point | E. coli WT GFP vs humanized-ribosome RFP mutants, 24 h; stronger effect = lower value; DMSO median 0, no signal -100 | GFP signal change (wild-type ribosome), % (test concentration not listed) | hit rate 1.6% among 350,000 | AID 720706, 2013;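 active = significant combined selectivity score with lowered wild-type GFP, culture density cut under 30%, mutant RFP and density less affected; inactive = any of these conditions unmet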; note: one replicate is shown; some compounds called inactive have numbers as strong as hits
A1 inh = caspase 3/7 activation in MEF A1-2A-BIM cells, primary screen, A1 inhibitor project, cell-based, luminescence, HTS. Caspase-Glo 3/7 luminescence, 3 h; percent of clofoctol response, vehicle zero. hit rate 0.066% among 330,000. caspase activation, % (concentration not given with the values);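 active = over half of replicate activation scores above 10%, or exactly half above 10 with the replicate mean above 10; inconclusive = replicate mean below 10 yet half the replicates above 10; inactive = over half of replicates below 10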;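 note: wells of about 30 µL received 50 nL stock; many hits fall short of the cut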
T cruzi inh = inhibitors of intracellular T. cruzi growth, primary screen, luminescence, NIH3T3 host cells; AID 1885, 2009; hit rate 1.4% among 300,000; inhibition, % (test concentration not listed); T. cruzi beta-gal in NIH3T3, 90 h;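 active = mean inhibition across valid replicates above about 55%, limit read from the data; inconclusive = mean below that limit but half or more replicates reach it; inactive = mean below it, under half of replicates reach it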;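 note: signal also drops with host cell toxicity which is not excluded here; 0% = plate median of DMSO wells and 100% = zero luminescence signal; higher percent means less beta-gal luminescence so fewer parasites; stock transfer was 50 nL into about 50 µL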
Calb FLC = C. albicans growth inhibition with fluconazole, primary screen, CaCi-2 strain, Alamar Blue fluorescence; C. albicans CaCi-2 (fluconazole-resistant clinical isolate) + fluconazole, 48 h; growth inhibition, % (test concentration not listed); hit rate 0.57% among 300,000; AID 1979, 2009;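 active = most replicates above 75%; inconclusive = exactly half above 75%; inactive = most below 75%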;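 note: all wells also contain fluconazole at 8 µg/ml as a sub-toxic cotreatment; 0% = median of DMSO wells and 100% = median of geldanamycin control wells; wells of about 8 µL received 7.5 nL stock; the first replicate is given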
rRNA inh HTS OD600 = recorded beside rRNA inh HTS, whose call it bears; OD600 change, %; measured here: OD600 growth;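 optical density of the mix in the first replicate; 0 = DMSO median and -100 = no signal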
rRNA inh HTS RFP = further read-out of rRNA inh HTS, marked with its call; RFP signal change, %; measured here: RFP humanized mutant strains;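 first replicate; 0 = DMSO median and -100 = no signal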
Starred values were filed as active, the others as inactive; ? = inconclusive; . = no result given. Only part of the results is shown; count on the stated rates, not on these rows.

SMILES	Beta apoptosis	Vif TR-FRET	RanGTP-Impb inh	MLL AF4-AF9 inh	rRNA inh HTS	rRNA inh HTS OD600	rRNA inh HTS RFP	A1 inh	T cruzi inh	Calb FLC
COc1ccc(CN=C(Nc2ccccc2)SC2CC(=O)N(C)C2=O)cc1 (stereo unspecified)	1	23%	5.5	-0.8	-2	-1	-5.6	0.4	5	1
O=C(COC(=O)c1cccc(S(=O)(=O)NCc2ccccc2)c1)Nc1ccccc1OC(F)F	-6	3%	-0.8	.	.	.	.	-0.3	-10	-4
C=CCOn1c(-n2nc(C)cc2C)nc2ccccc2c1=O	3	-7%	-0.8	0.8	3	4	-4.4	0.6	-9	4
O=c1cc(-c2ccccc2)oc2ccc(O)cc12	-1	-3%	-1.7	2.5	-13	-9	-4.9	-6.6	13	-1
CCc1nnc(NC(=O)c2ccc(S(=O)(=O)N(CCOC)CCOC)cc2)o1	-5	-5%	0.2	.	.	.	.	-0.2	-22	3
O=C(CSc1nc2ccccc2[nH]1)Nc1nc(-c2ccc(Br)cc2)cs1	10	2%	0.2	.	.	.	.	0.8	16	-11
COc1ccc(CCNc2oc(COc3ccccc3)nc2C#N)cc1	-7	30%	0.4	.	.	.	.	.	10	-7
COc1cc(OC)cc(C(=O)N(Cc2cc3cc(C)ccc3[nH]c2=O)C(C)C)c1	7	14%	-2.3	.	.	.	.	-0.4	20	.
CC(C)COc1ccc(C(=O)Nc2scc(-c3ccc(Cl)cc3Cl)c2C(N)=O)cc1	25	-13%	-8.3	.	.	.	.	0.0	55*	?
Cc1ccc(NC(=O)COC(=O)CSC(=S)N2CCOCC2)cc1	1	3%	-0.6	-1.0	17	6	4.0	0.0	-3	6
O=C(COC(=O)C(Cc1ccccc1)NC(=O)c1ccc(Cl)cc1)c1ccc(Cl)cc1 (stereo unspecified)	-8	.	-3.6	-0.4	5	8	-0.7	-0.2	-18	15
Cc1ccsc1C(=O)OCC(=O)N(Cc1ccccc1)C(C)C	0	-1%	.	-2.1	-30*	-17*	1.4*	1.6	.	.
CN(CCO)C(=O)c1ccc(-c2nn(C)c(=O)c3ccccc23)cc1	-15	0%	-3.8	-0.7	-7	-2	0.0	-1.6	-18	-9
CCc1nc2c(s1)CCc1onc(-c3ccc(Cl)cc3)c1-2	.	.	1.1	-30	3	2	-5.2	0.0	-14	-16
COc1ccc(S(=O)(=O)N2CC=C(C(=O)NC3CCCC3)CC2)cc1	6	.	2.4	0.9	11	9	0.4	0.4	-4	-4
CCN1CCN(C(=O)C(NS(=O)(=O)c2ccc3nc(C)sc3c2)C(C)C)CC1 (stereo unspecified)	-8	3%	2.6	-3.6	10	8	1.8	0.1	-16	-1
NS(=O)(=O)OCC1CCCCC1	2	.	2.6	-1.2	1	10	-2.2	0.0	-2	-3
Cc1ccc(S(=O)(=O)N2CCN(C(=O)CCc3nc4ccccc4c(=O)[nH]3)CC2)c(C)c1	1	-9%	0.9	0.0	-14	-14	0.7	0.7	11	1
CCCCN=C1N/C(=C\c2ccco2)C(=O)N1c1ccccc1	1	32%	0.2	.	.	.	.	0.1	0	2
COc1cccc(Cn2c(N)c(C#N)c3nc4ccccc4nc32)c1OC	-5	1%	9.0	.	.	.	.	-0.6	33	1
CCn1cc(C(=O)OCC(=O)N(C)C2CCS(=O)(=O)C2)c(=O)c2ccc(C)nc21 (stereo unspecified)	-2	1%	-2.0	.	.	.	.	-0.8	-7	-10
CC(=O)c1ccc(NC(=S)Nc2ccc(Br)c(Cl)c2)cc1	-5	-10%	-2.1	0.7	-53	-80	-14	1.1	10	-20
Fc1cccc(F)c1-c1nc2c(s1)CCc1onc(-c3ccc(Br)cc3)c1-2	-3	.	0.2	.	.	.	.	0.9	-10	3
CCOC(=O)C1=C(C)NC(=O)NC1/C=C/c1ccccc1OC (stereo unspecified)	-5	3%	?	-2.7	9	5	-0.9	-0.7	-11	-11
O=C(NCc1ccc(F)cc1)C1CCCN(C(=O)Nc2ccc(F)cc2)C1 (stereo unspecified)	6	4%	0.7	-2.9	-26	-37	-9.4	0.1	8	-5
O=C(Cc1ccc(Cl)cc1)Nc1cccc(S(=O)(=O)N2CCCCC2)c1	-7	-4%	.	3.9	-29	-46	-9.8	-0.3	.	.
Cc1ccc(C)c(S(=O)(=O)NCCCN2CCOCC2)c1	-1	.	2.7	-5.4	9	13	7.6	-1.7	-6	-5
O=C(N=C1SC2CS(=O)(=O)CC2N1c1ccc(Cl)cc1Cl)C1CC1 (stereo unspecified)	3	-5%	0.0	1.4	0	6	-1.8	0.3	0	-2
O=C(NCC(c1ccc(F)cc1)N1CCOCC1)c1ccc(Br)o1 (stereo unspecified)	-5	4%	-0.5	.	.	.	.	0.0	-4	14
COc1ccc(-c2nn(-c3ccccc3)cc2C2CC(c3cccs3)=NN2C(=O)CCC(=O)O)cc1 (stereo unspecified)	-3	-10%	3.0	-17	6	8	4.7	0.2	23	0
Cc1ccc(NC(=O)C2=NNC(=O)CC2)cc1F	2	12%	-1.5	-0.3	-3	-1	-0.1	-1.7	-7	-8
CCCCCn1c(SC(C)C(C)=O)nc2c1c(=O)[nH]c(=O)n2C (stereo unspecified)	-2	5%	2.6	-4.9	-2	-4	0.6	0.0	-2	0
O=C(CSc1ncccn1)N1CCCCCC1	-2	.	.	-2.8	17	6	4.1	0.0	.	.
CCCc1c(CC)c(=N)c2ccccc2n1C	9	23%	3.5	4.9	20	6	-11	-0.2	72*	-9
O=C1c2ccccc2S(=O)(=O)N1CC1CC(c2ccc(Cl)cc2)=NO1 (stereo unspecified)	2	24%	?	.	.	.	.	0.3	14	1
Cc1cccc(N2CC(C(=O)Nc3ccc(S(=O)(=O)N4CCOCC4)cc3)CC2=O)c1C (stereo unspecified)	5	-1%	-2.2	2.7	1	5	1.1	-0.1	-14	5
N#Cc1ccc(CN2CCN(C(=O)CC(NC(=O)c3ccccc3)c3ccccc3)CC2)cc1 (stereo unspecified)	-3	.	5.2	-6.9	5	-5	-1.3	0.7	5	6
COc1ccc2ccccc2c1/C=N/NC(=O)CC1(C)OCCCO1	-13	-9%	-0.5	5.6	.	.	.	0.7	-20	-5
CCOC(=O)c1sc2ncnc(NCc3ccco3)c2c1C	-4	13%	0.6	.	.	.	.	1.1	-12	2
C/C=C(\C)C(=O)Nc1cccc(C2=NOC3(C2)C[C@H](C(N)=O)N(C(=O)C(c2ccccc2)c2ccccc2)C3)c1 (stereo partly specified)	-3	18%	-2.0	.	.	.	.	1.2	32	-2
CC(C)(CNCc1ccccc1)NS(=O)(=O)c1ccc(Cl)cc1	-3	.	.	-0.5	8	-8	1.8	0.1	.	.
C/C(=N\Nc1ccc([N+](=O)[O-])cc1[N+](=O)[O-])c1cc2c(ccc3ccccc32)oc1=O	-2	2.9µM*	9.6	.	.	.	.	-0.5	-14	-3
CCN1C(=O)C(C(=O)NC(C)c2ccccc2)C2CC1(C)Oc1ccccc12 (stereo unspecified)	-8	19%	0.5	.	.	.	.	-0.1	-5	-9
Cc1ccc(CNC(=O)[C@@H](NC(=O)C2CCN(C(=O)[C@@H](N)CC(C)C)CC2)C(C)C)cc1	-1	.	0.6	-0.1	9	10	0.7	0.0	2	0
COc1ccc(NS(=O)(=O)c2ccc3nc(COc4ccc(Cl)c(C)c4)[nH]c3c2)cc1	47	.	-6.9	.	.	.	.	0.0	27	3
O=C(O)c1ccc(-n2c(-c3cc(C4CC4)[nH]n3)n[nH]c2=S)cc1	0	-5%	-1.3	-30	-1	12	-8.8	0.4	3	-4
Cc1ccccc1N(C(=O)CS(=O)CC(=O)Nc1ccc(F)cc1)C(C)C(=O)NC(C)(C)C (stereo unspecified)	-6	1%	1.4	-2.9	9	-1	1.7	1.0	4	-14
N#C/C(=C\C=C\c1ccccc1)c1nc(-c2ccc(Cl)cc2)cs1	.	.	3.3	-1.7	8	7	1.2	0.3	5	10
COc1cc(C(=O)NCc2nnc(SCC(=O)Nc3nc4ccccc4s3)o2)cc(OC)c1OC	8	.	4.9	-4.0	.	.	.	-1.0	-25	2
CC(/C=C/c1ccc2c(c1)OCO2)=N/NC(=O)c1ccncc1	.	0%	-1.8	1.5	-2	1	-0.7	-0.4	-8	-6

More compounds
SMILES	Beta apoptosis	Vif TR-FRET	RanGTP-Impb inh	MLL AF4-AF9 inh	rRNA inh HTS	rRNA inh HTS OD600	rRNA inh HTS RFP	A1 inh	T cruzi inh	Calb FLC
COc1ccccc1/C=C/CN1CCNC(=O)C1CC(=O)NCCc1cnccn1 (stereo unspecified)	-4	-1%	-4.7	0.8	13	21	3.8	-0.4	-17	0
CCC(C)(C)C(=O)O[C@H]1C[C@@H](C)C=C2C=C[C@H](C)[C@H](CC[C@@H]3C[C@@H](O)CC(=O)O3)[C@H]21	21	.	-1.1	1.4	.	.	.	-0.2	0	.
Cc1ccc(S(=O)(=O)Nc2ccc(O)c3cccnc23)cc1	0	.	7.0	3.7	17	0	2.1	0.5	-4	41
COCCN(C(=O)c1ccco1)C(C(=O)NC1CCCC1)c1cccs1 (stereo unspecified)	-3	17%	1.1	.	.	.	.	0.1	-11	18
Cc1cccc(NC(=O)Nc2ccc(C)cc2Br)c1	7	.	-2.7	.	.	.	.	-4.0	12	-14
Nc1nc(SCc2ccccc2Cl)n[nH]1	-10	74%	-0.5	.	.	.	.	-0.4	-10	-8
CCCn1c(N)cc(=O)n(C)c1=O	6	1%	?	1.9	7	5	1.6	1.1	-9	3
O=C(/C=C(\c1ccc(Cl)cc1)n1cncn1)c1ccc(Cl)cc1	5	27%	2.4	.	-8	0	9.8	0.2	65*	-13
CC1(c2ccc3ccccc3c2)NC(=O)N(CC(N)=O)C1=O (stereo unspecified)	-2	-1%	-1.5	1.7	9	4	1.1	0.0	3	-3
CCS(=O)(=O)N1CCN(c2cccc(C)c2C)CC1	3	3%	-0.9	.	.	.	.	1.3	-6	9
O=C(Nc1ccon1)c1cc2c(s1)CCCC2	9	-6%	4.2	-0.2	.	.	.	-8.9	-26	7
CCn1ncc(/C=N/NC(=O)c2ccc3c(c2)OCO3)c1C	0	-7%	0.3	.	.	.	.	-0.3	-12	2
CC1=NN(c2ccc(Cl)cc2)C(=O)C1	.	25%	4.8	-11	-7	-3	-1.4	0.2	-1	-26

Source: PubChem (several laboratories)
